Compound activity from PubChem BioAssay.
N370S GC mod: qHTS Assay for Inhibitors and Activators of N370S glucocerebrosidase as a Potential Chaperone Treatment of Gaucher Disease; N370S GC spleen homogenate, 4MU-glucoside fluorescence; Lysosomal acid glucosylceramidase (Homo sapiens), P04062; Potency, µM (doses to about 59.4 µM), without a hit: top-dose activity change, negative = inhibition, most hits filed as inhibitors; 0.092% of 330,000 active;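 further: 0% = full enzyme activity and -100% = no enzyme basal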
TDP1 block: qHTS Assay for Inhibitors of Tyrosyl-DNA Phosphodiesterase (TDP1). recombinant TDP1, AlphaScreen DNA substrate cleavage. Potency, µM (titrated, usually from 130 µM), for the others: at the highest dose activity change, negative = inhibition, most hits filed as inhibitors. 0.28% of 350,000 active. AID 485290, 2010; further: nearly all actives have a fitted effect of over 40% in size
Target sequence (Q9NUW8 whole entry, looked up): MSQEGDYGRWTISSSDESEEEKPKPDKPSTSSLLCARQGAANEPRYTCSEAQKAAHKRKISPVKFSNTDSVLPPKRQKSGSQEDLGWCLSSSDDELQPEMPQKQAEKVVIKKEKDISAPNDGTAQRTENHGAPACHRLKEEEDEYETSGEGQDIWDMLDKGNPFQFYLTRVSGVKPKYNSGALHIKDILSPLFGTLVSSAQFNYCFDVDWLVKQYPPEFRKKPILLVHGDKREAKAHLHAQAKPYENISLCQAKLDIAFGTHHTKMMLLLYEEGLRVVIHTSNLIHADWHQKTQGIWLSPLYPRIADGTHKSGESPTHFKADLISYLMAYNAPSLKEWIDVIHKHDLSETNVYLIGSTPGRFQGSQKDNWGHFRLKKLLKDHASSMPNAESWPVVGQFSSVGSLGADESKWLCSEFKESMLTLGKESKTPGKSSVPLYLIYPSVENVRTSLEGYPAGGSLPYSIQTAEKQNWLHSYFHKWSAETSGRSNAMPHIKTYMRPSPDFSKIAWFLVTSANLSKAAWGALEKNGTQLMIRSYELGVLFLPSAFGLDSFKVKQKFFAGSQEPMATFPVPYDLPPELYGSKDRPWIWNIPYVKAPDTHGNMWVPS
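E. coli-derived human Tdp1, 1 nM final. Cpd preinc 15 min RT; substrate 15 nM final, 5 min RT; AS bead mix 10 ug/ml final, 10 min RT. Signal loss = tyrosine-FITC cleavage. No-enzyme wells = max signal.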
* marks the source's active call; other numbers are inactive results; u = inconclusive; x = no result given; & = joins results of further samples; [ ] = remark or other dose. The call rests on the fitted dose curve; in most records, active means well fitted curve in the direction sought with a large enough effect; inconclusive means small, poorly fitted or top-dose-only effect, or another doubt; inactive means no such curve, though single readings can be large; an effect the other way counts as inactive or inconclusive. Unless noted, on the % scale 0 is the no-effect control and ±100 the full control effect; potency means the concentration at half of the fitted maximal effect. Not all compounds are listed; most or all hits stand in other tables.

N370S GC mod	TDP1 block	canonical_smiles
x	0.1%	Cc1cc(C)cc(OCC(=O)OCC(=O)Nc2cc(C)nn2-c2ccccc2)c1
14.8%	-3.3%	O=C(O)C1C2C=CC(C2)C1C(=O)Nc1cccc(F)c1 (stereo unspecified)
-2.8%	x	O=S(=O)(c1ccc(Oc2ccc(F)c(Cl)c2)nc1)N1CCOCC1
-12.4%	0.4%	Cc1ccc(CN(C)C(=O)c2ccc(NS(=O)(=O)c3ccc4[nH]c(=O)[nH]c4c3)cc2)cc1
5.1%	1.1%	Cc1cc(C)nc(NC(=O)c2c(-c3ccccc3Cl)noc2C)n1
-9.4%	-4.9%	Nc1c(N2CCCC2)cc(Cl)c2nonc12
-7.4%	2.5%	NC(N)=NNC(=O)c1ccccc1Cl
-5.1%	7.2%	Cn1nc(-c2ccc(N3CCCCC3)c(NC(=O)c3ccco3)c2)c2ccccc2c1=O
1.3%	10.9%	Cc1ccccc1-c1nc(CS(=O)(=O)CC(=O)NCCCN2C(C)CCCC2C)c(C)o1 (stereo unspecified)
-2.1%	2.4%	COc1cc(CCCN2C(=O)C(=O)NC[C@@H]2C(C)O)cc(OC)c1OC (stereo partly specified)
4.7%	1.2%	CCOC(=O)/C(C#N)=C/c1cc2cc(C)c(C)cc2nc1Cl
-5.9%	6.3%	CC1(C)Cc2[nH]c(=S)c(C#N)cc2CO1
13.8%	0.6%	O=C(Nc1nc(-c2ccc([N+](=O)[O-])cc2)cs1)c1c(F)cccc1F
-3.4%	0.0%	Cn1c(=O)n(C)c2cc(S(=O)(=O)Nc3cc(Cl)ccc3O)ccc21
1.1%	7.8%	Cc1noc(C)c1C(=O)OCC(=O)NC1CCCCC1C (stereo unspecified)
4.2%	x	COc1cccc(C(=O)NC2CCCc3ccccc32)c1 (stereo unspecified)
6.1%	6.0%	O=C(/C=C/c1ccc(Cl)cc1)NCCc1ccccc1
-6.3%	4.1%	Cn1c(Cc2cccc3ccccc23)nnc1SCc1ccc([N+](=O)[O-])cc1
1.0%	1.5%	O=C(CN(Cc1ccc(Br)cc1)S(=O)(=O)c1ccccc1)NCc1ccccn1
-4.1%	4.7%	COc1ccc(S(=O)(=O)N2CCN(Cc3cccc(Cl)c3)CC2)cc1
-1.5%	-1.8%	CNC(=O)C(=O)NCC1OCCN1S(=O)(=O)c1ccc([N+](=O)[O-])cc1 (stereo unspecified)
-4.4%	5.2%	CC(C)CCn1nnnc1C(c1ccccc1F)N1CCC(C(N)=O)CC1 (stereo unspecified)
-5.5%	x	COc1ccc(N=Nc2c(-c3ccc(OC)cc3)[nH]oc2=O)cc1
-0.3%	0.0%	CC(=O)Nc1ccc(NC(=O)c2nc(-c3ccccc3)oc2C)cc1
16.1%	-4.9%	COc1cc(C=O)c(Cl)cc1OCC(N)=O
-8.3%	4.9%	CN(CCO)c1cc(N2CCCCC2)c2nonc2c1[N+](=O)[O-]
10.8%	6.2%	CC12CC3(C)CC(C)(C1)CC(C(=O)NC(=S)N1CCCC1)(C2)C3
14.9%	-2.1%	[O-][n+]1c2ccc3nonc3c2nn1-c1ccccc1Cl
-0.2%	-10.8%	COc1cccc(CNC(=O)N2CCN(S(=O)(=O)c3ccc(Cl)cc3)CC2)c1
3.3%	0.0%	COc1ccc(CCNC(=O)Cn2cc(C(F)(F)F)cc(Cl)c2=O)cc1
4.8%	5.6%	CCOC(=O)c1sc(NS(=O)(=O)c2ccc(NC(C)=O)cc2)nc1C
10.8%	3.4%	Cc1ccc(S(=O)(=O)N2CCC(C(=O)NCCc3ccccc3)CC2)cc1
2.9%	2.3%	Cc1ncc(CSc2nnnn2-c2ccccc2)c(N)n1
20.9%	4.2%	CC1CCN(C(=O)COC(=O)c2cc3ccccc3cc2O)CC1
u	6.6%	Cn1c(=O)[nH]c(=O)c2c1nc(Br)n2CC(O)COc1ccccc1 (stereo unspecified)
-0.3%	3.8%	CCCCc1cn([C@@H](CCCCNC(=O)OC(C)(C)C)C(=O)N2CCN(C(=O)OC(C)(C)C)CC2)nn1
-14.4%	-6.6%	O=C(Cc1ccccc1)NCCS(=O)(=O)N1CCN(c2cccc(Cl)c2)CC1
-10.5%	x	COc1ccccc1C(=O)NC(=O)COC(=O)CN1C(=O)NC2(CCCCC2C)C1=O (stereo unspecified)
4.7%	x	C=CCN1C(=O)N(CC=C)c2cccc3cccc1c23
-26.1%	x	O=C1NC(c2ccc(Br)cc2)Oc2ccccc21 (stereo unspecified)
2.5%	2.4%	COc1ccc(C(=O)N=c2sc3ccccc3n2C)cc1OC
1.3%	6.3%	COc1ccc(S(=O)(=O)Nc2c(C(=O)O)[nH]c3ccccc23)cc1OC
6.5%	0.0%	Cn1c(OCc2ccc3c(c2)OCO3)nc2c1c(=O)n(Cc1ccc(Cl)c(Cl)c1)c(=O)n2C
1.4%	1.2%	c1ccc(CSc2nnc3ccc(-c4ccncc4)nn23)nc1
-12.9%	x	Cc1cccc(C)c1OCC(O)CNC(C)c1ccccc1 (stereo unspecified)
2.8%	2.7%	COc1cc(/C=C(\C#N)C(=O)Nc2cccnc2)ccc1OC(C)C
-1.6%	x	O=S1(=O)N=C(N(CCO)/N=C/c2ccccc2F)c2ccccc21
0.3%	1.4%	COc1ccc(Cl)cc1NC(=O)CSc1nc(N2CCOCC2)nc(N2CCOCC2)n1
-2.5%	3.1%	CC(=O)Nc1ccc(NC(=O)CCC(=O)OCC(=O)c2ccc(F)cc2)cc1
3.2%	4.7%	O=C(c1ccoc1)N1CCC2(CC1)Oc1ccc(Cl)cc1C(=O)C21CC(c2ccc(Cl)cc2)=NO1 (stereo unspecified)

Some of these compounds in order of SMILES length, rising.
N370S GC mod	TDP1 block	canonical_smiles
-12.9%	x	Cc1cccc(C)c1OCC(O)CNC(C)c1ccccc1 (stereo unspecified)
2.5%	2.4%	COc1ccc(C(=O)N=c2sc3ccccc3n2C)cc1OC
14.9%	-2.1%	[O-][n+]1c2ccc3nonc3c2nn1-c1ccccc1Cl
2.8%	2.7%	COc1cc(/C=C(\C#N)C(=O)Nc2cccnc2)ccc1OC(C)C
6.5%	0.0%	Cn1c(OCc2ccc3c(c2)OCO3)nc2c1c(=O)n(Cc1ccc(Cl)c(Cl)c1)c(=O)n2C
-0.3%	3.8%	CCCCc1cn([C@@H](CCCCNC(=O)OC(C)(C)C)C(=O)N2CCN(C(=O)OC(C)(C)C)CC2)nn1

Later entries
N370S GC mod	TDP1 block	canonical_smiles
14.6%	u	CCn1nc(-c2ccccc2)c2nc3ccccc3nc21
1.6%	8.6%	O=C(NCCO)C1CCN(C(=O)c2ccc(-c3ccccc3)cc2)CC1
-12.5%	x	CC(C)c1ccc(NC(=O)Cn2ncc3ccccc32)cc1
-1.9%	2.7%	O=C(CCc1ccccc1)OCC(=O)c1cccc([N+](=O)[O-])c1
x	-0.5%	CC1CC(C)CN(C(=O)CSc2nnc3ccccn23)C1 (stereo unspecified)
-11.0%	-1.9%	COc1cc(OC)cc(C(=O)NC2CC(C)(C)NC(C)(C)C2)c1
-8.9%	0.3%	COc1cccc(NC(=O)[C@H](CC(C)C)NC(=O)N2CCn3c2nc2ccccc23)c1
-3.4%	1.0%	COc1ccc(N2CCN(CC(=O)Nc3c(C)cc(C)cc3C)CC2)cc1
-7.9%	x	O=C(O)c1ccc(C(=O)c2ccc3c(c2)C(=O)N(CCO)C3=O)cc1
3.6%	2.6%	Cc1ccccc1-c1nc(CS(=O)(=O)CC(=O)NCCCN2CCCC2=O)c(C)o1
-2.2%	-3.7%	Cc1ccccc1-c1nn(-c2ccc(F)cc2F)cc1CNCC(C)O (stereo unspecified)
-1.1%	7.0%	O=S(=O)(c1ccccc1F)N1CCN(C(=S)NCc2ccccc2)CC1
3.5%	-6.7%	Cc1cccc(C)c1OCC(=O)Nc1ccccc1C(F)(F)F
-2.0%	3.6%	O=C(Cn1cnc2cc([N+](=O)[O-])ccc2c1=O)Nc1ccc2c(c1)OCO2
-2.6%	1.3%	COc1ccc(OC)c(CNC(=O)CCn2nc(C)c3c(C)n(-c4ccccc4)nc3c2=O)c1
-2.5%	x	CC(C)OC(=O)c1cc(NC(=O)C2C3C=CC(O3)C2C(=O)O)cc(C(=O)OC(C)C)c1 (stereo unspecified)
-11.4%	x	COc1ccc(Cl)cc1NC(=O)CN(C)C(=O)C1CC(=O)N(Cc2ccc(C)cc2)C1 (stereo unspecified)
-3.4%	0.0%	COc1ccccc1NC(=O)C1CCN(C(=O)NCc2ccccc2)CC1
-9.8%	0.1%	O=C(O)C1CCN(S(=O)(=O)c2ccc(N3CCCC3C(=O)O)c([N+](=O)[O-])c2)CC1 (stereo unspecified)
0.7%	0.7%	COc1ccc(C(=O)NCCCSC)cc1OC1CCN(C(C)C)CC1
5.1%	1.0%&4.7%	Cc1cc(F)ccc1NC(=O)C1CCN(S(=O)(=O)c2ccc3c(c2)CCCC(=O)N3)CC1
-0.9%	0.1%	NS(=O)(=O)c1ccc(CCNc2ccc(C(F)(F)F)cn2)cc1
-8.5%	-3.9%	COc1ccccc1C(C[N+](=O)[O-])c1c(N)n(C)c(=O)n(C)c1=O (stereo unspecified)
6.0%	0.4%	CN(CC(=O)Nc1ccc(Cl)cc1)C(=O)CNC(=O)c1ccc(Br)o1
-8.7%	4.7%	OCCCc1nc2ccccc2n1CCCCOc1ccccc1
-3.8%	3.7%	Cc1ccc(NS(=O)(=O)c2ccc(C(=O)NCc3cccnc3)cc2)cc1
-4.9%	x	O=C(Oc1ccc(Oc2ccccc2)cc1)N1CCC(O)CC1
u	1.3%	CC(=O)N1CCOc2cc(S(=O)(=O)NC(C)c3ccccc3)c(Cl)cc21 (stereo unspecified)
4.7%	13.6%	O=c1c2c(nc3c(-c4cccc5ccccc45)c[nH]n13)CCC2
-12.4%	0.0%	COC(=O)c1ccc(C2C(C(=O)c3cc4ccccc4o3)=C(O)C(=O)N2CCCN(C)C)cc1 (stereo unspecified)
15.7%	-10.6%	CSc1ccccc1NC(=O)COC(=O)c1ccccc1Cc1ccccc1
-3.3%	2.9%	COC(=O)c1ccc(=O)n(Cc2ccc3c(c2)OCO3)c1
-2.8%	-3.9%	COc1ccc(C(=O)Nc2ccc(S(=O)(=O)Nc3onc(C)c3C)cc2)cc1OC
-6.4%	3.0%	CCC(CO)NCc1ccccc1OC(C)C (stereo unspecified)
2.1%	8.1%	CSc1ccccc1OCc1cc(C(=O)NCCN2CCCc3ccccc32)no1
0.8%	1.0%	NC(=O)CCN1CCN(S(=O)(=O)/C=C/c2ccccc2)CC1
-8.1%	4.1%	O=C(Nc1cnn(Cc2ccc(Cl)cc2Cl)c1)c1cc(-c2cccs2)on1
5.6%	7.6%	O=C(N/N=C/c1cccs1)C(=O)N1CCCC1
-4.5%	8.1%	CCN(C(=O)COC(=O)c1cc(-c2cccc3ccccc23)nc2ccccc12)C1CCS(=O)(=O)C1 (stereo unspecified)
-12.5%	0.5%	NC(=O)c1ccccc1NC(=O)CC12CC3CC(CC(Br)(C3)C1)C2
-1.4%	-5.6%	COc1cc(OC)cc(C(=O)NCCN2CCOCC2)c1
-5.1%	u	C=CCN1C(=O)c2cccc3c(N4CCCCC4)ccc(c23)C1=O
0.2%	0.0%	CCCCC(=O)Nc1ccc(C(=O)NNC(=O)CCCOc2ccc(Cl)cc2Cl)cc1
3.5%	2.8%	O=C(COc1ccc(C(=O)c2ccccc2)cc1)NCc1ccc(F)cc1
1.3%	x	COc1cccc(C(=O)N2CCN(Cc3nc(CC4CC4)no3)CC2)c1
x	-0.9%	COC(=O)[C@]1(C)N[C@H](CN(C)C(=O)c2ccccc2)[C@@H]2C(=O)N(C)C(=O)[C@@H]21
1.9%	9.6%[56.1 µM]	O=C(CCCN1CCN(c2ccccn2)CC1)c1ccc(F)cc1
2.4%	11.1%	COc1cc(Cl)ccc1OCc1cc(C(=O)N2CCC(N(C)C)C2)no1 (stereo unspecified)
0.8%	0.0%	Cc1nn(C)c(C)c1NC(=O)c1ccc(Br)o1
-1.7%	5.7%	O=C(c1ccc(S(=O)(=O)NCc2ccco2)cc1)N1CCCC(C(F)(F)F)C1 (stereo unspecified)

Carrying on:
N370S GC mod	TDP1 block	canonical_smiles
u	1.6%[0.0935 µM]	O=C(O)CN1C(=O)/C(=C\c2cccc(OC(=O)c3ccco3)c2)SC1=S
-5.1%	2.0%	O=C(CN(C1CCCCC1)S(=O)(=O)c1ccc(F)cc1)NCCCO
0.5%	8.4%	COc1ccc(N2C(=O)CC(Sc3n[nH]c(-c4ccc(C)cc4)n3)C2=O)cc1 (stereo unspecified)
-22.0%	-5.5%	O=c1cc(-c2ccc(Cl)cc2)[nH]c2ccccc12
11.0%	3.2%	Cc1nc(=O)c(-c2ccccc2)c(C)n1-c1ccc(C(=O)O)cc1
-2.2%	5.4%	CC(=O)c1cccc(NC(=O)N2CCC(c3ccc(C)cc3)C2)c1 (stereo unspecified)
-6.4%	2.6%	Cc1noc(/C=C/N(C)C)c1S(=O)(=O)N1CCCC(C(=O)NCc2ccco2)C1 (stereo unspecified)
-13.9%	4.0%	CCN(C(=O)COC(=O)c1cc2c(s1)CCCCC2)C1CCS(=O)(=O)C1 (stereo unspecified)
u	2.5%	COc1ccc(OC)c(C(=O)COC(=O)c2cc(C)oc2C)c1
-0.2%	5.1%	N=c1n(CCO)c2ccccc2n1Cc1ccc(Cl)cc1
2.0%	-2.5%	COC(=O)c1cn(NC(=O)Cc2ccccc2OC)c(=O)c2ccccc12
